CtBP-E1A inh = blocks the CtBP interaction with E1A | activity change, % (no concentration beside the values) | AID 651724 | 340,000 tested, 0.49% active | AlphaScreen GST-E1A/His-CtBP binding, 1536-well; stronger effect = lower value; control for the full effect not named in the record; in the data active means activity change below about -65%; inconclusive means about -30% to -65%; inactive means above about -30%; also: % is scaled to controls: 0 for no effect and ±100 for the full control effect; compound concentration not given in the record
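In 5 uL wells, 23 nL compound meets equimolar GST-E1A and His-CtBP (5X stock 125 nM each) for 2 h, 37 °C. Beads (5X, 50 ug/mL) then 1 h, 37 °C, dark.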
PINK1 modulator = changes PINK1 expression; PINK1 immunofluorescence, high-content cytometry, 24 h; 410,000 tested, 0.2% active; AID 624263; Potency, µM (highest dose often 76.6 µM), for inactives: at the top dose activation (PINK1 increase), usual class: activators; active = well fitted activation curve with a large enough effect; inconclusive = small, poorly fitted or top-dose-only effect; inactive = flat fitted curve, though single readings scatter; cell line not stated here;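 also: potency is read from the fitted curve at half-maximal effect; % of control where 0% means no effect; nearly all actives have a fitted effect of over 65% in size; a mitochondrial uncoupler was the plate control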
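PINK1 protein level read as immunofluorescence by microplate cytometer in a fixed, stained stable cell line after 24 h exposure to five compound concentrations, with CCCP as control.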
D2 agonist = activates the human D2 dopamine receptor. 360,000 tested, 0.084% active. P14416. activation, % (no concentration beside the values). DiscoveRx PathHunter D2 beta-arrestin, luminescence, 90 min; 100% = 57 uM dopamine signal. AID 624465; in the data active = activation above about 40%; inconclusive = about 15% to 40%; inactive = below about 15%; also: compound concentration not given in the record; the text of the record calls up to 30% inactive
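Agonist mode: compounds alone added to overnight-plated D2 PathHunter cells for 90 min at 37 C, with 57 uM final dopamine (EC100) defining full response. Beta-arrestin recruitment detected by chemiluminescent reagent, read after 1 h at ambient temperature.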
TRPML1 inh = human mucolipin-1 channel inhibition | Q9GZU1 | TRPML1-inducible cells, Ca2+ dye fluorescence, FDSS; stronger effect = lower value; inhibition of EC80 agonist-evoked calcium signal | activity change, negative = inhibition, % (concentration not given with the values) | 390,000 tested, 0.02% active | AID 624415; in the data active means activity change below about -50%; inconclusive means about -30% to -50%; inactive means above about -30%;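 also: stimulus is agonist 54-4 at its EC80 concentration; % is scaled to controls: 0 for no effect and ±100 for the full control effect; compound concentration not given in the record; the text of the record puts the active cut at -80%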
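TRPML1-DL cells, Tet-induced overnight (~16 h, 37 °C) at 1,500 cells/well, were loaded with Ca8 no-wash dye plus quencher for 45-90 min at room temperature. Compounds were pinned during FDSS kinetic reading; agonist 54-4 at EC80 (4 uM final) then added.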
TRPML1 ag = human mucolipin-1 channel agonism. TRPML1-expressing cells, Ca2+ dye fluorescence, FDSS; host cell line not named in the record; reference of the full effect not given here. activation, % (test concentration not listed). 410,000 tested, 0.12% active. AID 624414; in the data active = activation above about 50%; inconclusive = about 30% to 50%; inactive = below about 30%; also: 0% is about no effect; the text of the record puts the active cut at 80%
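Calcium fluorescence on an FDSS kinetic reader gave the read-out. Tet-induced TRPML1-DL cells were plated overnight, dye-loaded (Ca8 with quencher, 45-90 min, room temperature, dark), then read 110 s after compound addition, and again 110 s after 4uM final 54-4 (EC80).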
Six1-Eya2 inh = blocks human Six1 binding to Eya2 | Q15475+O00167 | AlphaScreen GST-Six1/His-Eya2 binding, biochemical; stronger effect = lower value; control for the full effect not named in the record | activity change, % (concentration not given with the values) | 360,000 tested, 0.56% active | AID 651725; in the data active = activity change below about -65%; inconclusive = about -30% to -65%; inactive = above about -30%; also: % is scaled to controls: 0 for no effect and ±100 for the full control effect
Target sequence (O00167 whole entry, looked up): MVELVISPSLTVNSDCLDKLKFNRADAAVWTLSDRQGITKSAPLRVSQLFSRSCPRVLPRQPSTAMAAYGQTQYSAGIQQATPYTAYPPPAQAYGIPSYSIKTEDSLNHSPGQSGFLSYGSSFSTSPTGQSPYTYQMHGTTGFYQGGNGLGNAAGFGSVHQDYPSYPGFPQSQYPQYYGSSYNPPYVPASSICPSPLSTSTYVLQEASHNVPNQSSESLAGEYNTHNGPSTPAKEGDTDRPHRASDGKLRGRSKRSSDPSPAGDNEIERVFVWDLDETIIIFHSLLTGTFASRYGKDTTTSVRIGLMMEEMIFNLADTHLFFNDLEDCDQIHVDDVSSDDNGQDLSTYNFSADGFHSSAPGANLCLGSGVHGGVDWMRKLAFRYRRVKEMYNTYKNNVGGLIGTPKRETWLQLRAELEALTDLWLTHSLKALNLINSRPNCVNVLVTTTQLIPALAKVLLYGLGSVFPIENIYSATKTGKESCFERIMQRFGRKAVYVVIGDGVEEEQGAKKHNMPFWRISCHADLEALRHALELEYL
Target sequence (Q15475 whole entry, looked up): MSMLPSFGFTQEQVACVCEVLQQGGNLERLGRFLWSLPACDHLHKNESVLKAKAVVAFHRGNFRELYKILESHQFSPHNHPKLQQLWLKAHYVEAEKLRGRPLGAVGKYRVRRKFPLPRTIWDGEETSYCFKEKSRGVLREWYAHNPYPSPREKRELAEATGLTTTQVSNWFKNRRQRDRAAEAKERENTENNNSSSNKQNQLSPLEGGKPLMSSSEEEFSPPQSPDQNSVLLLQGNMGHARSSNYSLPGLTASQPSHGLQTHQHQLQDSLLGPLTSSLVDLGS
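AlphaScreen with GST-Six1 and His-Eya2 (5X mix: 250 nM and 500 nM), glutathione donor and nickel acceptor beads; buffer 50 mM Tris pH 8.0, 300 mM NaCl, 1 mM TCEP; 1 h at 37 C in the dark.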
* marks the source's active call; other numbers are inactive results; ? = inconclusive; . = not tested or not shown; & = joins results of further samples; [ ] = remark or other dose.

SMILES	CtBP-E1A inh	PINK1 modulator	D2 agonist	TRPML1 inh	TRPML1 ag	Six1-Eya2 inh
CC(C)Oc1ccccc1C1CC(=O)Nc2cc3c(cc21)OCO3 (stereo unspecified)	?	5.1%[38.3 µM]	2.6	-1	-0.3	-23
CC(=O)OCC(=O)[C@@]12OC(C)(C)O[C@@H]1C[C@H]1[C@@H]3C[C@H](F)C4=CC(=O)C=C[C@]4(C)[C@@]3(F)[C@@H](O)C[C@@]12C	1	5.0%	-5.0	-9	0.9	2
Cc1cn([C@H]2C[C@H](O)[C@@H](CCC(=O)NCc3ccccc3)O2)c(=O)[nH]c1=O	-1	-0.1%	-4.7	-16	-0.3	8
O=C(CCC(=O)Nc1ccccc1Cl)NNC(=O)NC1CCCCC1	-1	-1.2%	0.6	3	0.3	13
Cc1c(NC(=O)COC(=O)C23CC4CC(CC(Br)(C4)C2)C3)c(=O)n(-c2ccccc2)n1C	-2	1.5%	1.0	36	-0.1	3
Cc1ccc2cc(/C=N/Nc3nc4ccccc4[nH]3)c(Cl)nc2c1	.	-0.4%	-3.0	13	1.9	0
COc1cc2c(cc1OC)C(c1cccc(Cl)c1Cl)CC(=O)N2 (stereo unspecified)	5	5.9%	-5.9	25	-0.5	-11
COc1ccc(NC(=O)Nc2nc(C(N)CC(C)C)cs2)cc1 (stereo unspecified)	?	10%	-3.6	-9	0.5	-22
C[C@H]1CN([C@@H](C)CO)C(=O)CCCn2cc(nn2)CO[C@@H]1CN(C)C(=O)NC1CCCCC1	6	-0.2%	-4.9	22	0.2	7
Cc1cccc(OCCCC(=O)O)c1C	-5	-2.8%	-6.6	1	0.7	2
CCC1CCCCN1Cc1ccc(OC)c(OC)c1 (stereo unspecified)	7	-4.1%[38.3 µM]	-4.5	-14	1.1	5
Cc1c(C(=O)OCC(=O)Nc2c(C)n(C)n(-c3ccccc3)c2=O)cccc1[N+](=O)[O-]	.	1.3%	2.6	26	0.6	1
O=C(Cn1c(=O)n(Cc2ccccc2)c(=O)c2sc3ccccc3c21)Nc1ccccc1	.	4.9%	.	2	1.1	.
CN1CC(=O)N(C)c2ncn(Cc3ccccc3)c2C1=O	2	-0.5%	2.5	15	-0.7	12
Cc1ccc(NC(=O)C(C)Sc2nnc(-c3cccnc3)o2)cc1 (stereo unspecified)	3	-1.1%	-3.2	9	0.6	1
COc1cc(C2C3=C(COC3=O)Oc3cc4c(cc32)OCO4)ccc1O (stereo unspecified)	-5	11%	3.0	-1	0.5	1
S=c1nccc(-c2ccc3c(c2)CCO3)[nH]1	-1	1.7%	-3.6	33	0.5	9
CC1(C)CC(=O)c2cnc(N3CCN(c4ccccc4)CC3)nc2C1	0	-1.0%	-0.8	-6	-0.2	6
Cc1ccc(C(=O)NC(NCc2ccccc2)C(Cl)(Cl)Cl)cc1 (stereo unspecified)	2	2.8%	1.0	-4	0.1	6
COc1ccc(C)cc1NC(=O)c1ccc2nc(Cc3ccccc3)oc2c1	.	-0.4%	.	12	2.7	.
Cc1cc(C(=O)OCC(=O)NCCC(C)C)c2ccccc2n1	1	18%[38.3 µM]	-0.9	3	3.1	2
Cc1onc(-c2ccccc2Cl)c1C(=O)N1CCOC12CCN(c1cccc(F)n1)CC2	1	-0.6%	-4.9	-3	0.4	2
Cn1cc(CN2CC3C[C@@H]4CC2C[C@H](C3)C4)c(-c2ccc3c(c2)OCCO3)n1	-20	-1.9%	-4.3	0	0.3	10
CCS(=O)(=O)c1ccc(O)c(NC(=O)COc2ccc(Cl)cc2)c1	2	7.2%	-10	5	0.2	-10
CCc1cc2c(=O)c(-c3ccc4c(c3)OCCO4)coc2c(CN2CCCCC2C)c1O (stereo unspecified)	-16	-1.9%	-4.7	-1	-0.1	-2
COc1cc(NC(=O)CNC(c2ccccc2)c2ccccc2)cc(OC)c1OC	-7	4.3%	-2.9	-6	-0.6	-7
CCOc1ccc(CCn2c3c(c(=O)[nH]c2=O)C(NC(=O)c2ccccc2)(C(F)(F)F)C(=O)N3)cc1OCC (stereo unspecified)	.	2.5%	.	2	-0.1	.
C=CCc1cc(Cl)ccc1OCCNCCOC	-8	-0.4%	-3.8	11	2.3	12
O=c1nc2ccccc2c2n1CC(CN1CCN(c3ccccc3F)CC1)N2 (stereo unspecified)	-5	3.3%	2.1	9	-1.5	6
CC(C)(C)OC(=O)NN=C(c1ccc(O)cc1)c1ccc(O)cc1	2	-0.4%	4.5	9	2.1	0
C[C@H](NC(=O)OC(C)(C)C)c1nnc(SCC(=O)Nc2cccc(Cl)c2)o1	-2	-0.9%	-1.6	8	0.5	0
COc1ccc(NC(=O)CCNS(=O)(=O)c2ccc(NC(C)=O)cc2)cc1Cl	-26	-0.9%	-6.5	8	0.4	6
COc1cccc(NC(=O)c2ccccc2-c2ccccc2C(=O)O)c1	6	1.2%	0.0	20	-0.1	2
O=C(Cn1nc(-c2ccccc2)c2cnc3ccc(F)cc3c21)NC1CCCC1	.	0.6%	.	-23	0.2	.
CCOC(=O)COc1cc(OCC(=O)OCC)c2c3c(c(=O)oc2c1)CCCC3	4	6.3%	2.8	-1	3.3	-3
C[C@H]1CN([C@@H](C)CO)C(=O)c2cc(Br)cnc2O[C@@H]1CN(C)C(=O)c1ccncc1	1	3.2%	-8.3	-19	0.0	2
O=C(CNC1CCCCCC1)c1cccs1	6	1.2%	-15	?	0.5	4
O=C(O)C1SCCN1S(=O)(=O)c1ccc2ccccc2c1 (stereo unspecified)	0	-2.2%	-5.8	9	0.0	-2
CCOC(=O)C1(c2nc(N)cs2)COC(=O)C1 (stereo unspecified)	3	-1.5%	-1.9	5	-1.1	-1
O=C(COC(=O)C(Cc1ccccc1)NC(=O)c1ccco1)NC1CC1 (stereo unspecified)	7	4.1%	-1.1	1	-0.6	3

Next part, overlapping the part above by 2 compounds.
SMILES	CtBP-E1A inh	PINK1 modulator	D2 agonist	TRPML1 inh	TRPML1 ag	Six1-Eya2 inh
CCOC(=O)C1(c2nc(N)cs2)COC(=O)C1 (stereo unspecified)	3	-1.5%	-1.9	5	-1.1	-1
O=C(COC(=O)C(Cc1ccccc1)NC(=O)c1ccco1)NC1CC1 (stereo unspecified)	7	4.1%	-1.1	1	-0.6	3
COc1ccccc1N1CCN(C2CCCN(C(=O)c3cc(C4CC4)on3)C2)CC1 (stereo unspecified)	0	1.4%	3.4	-61*	1.3	0
Cc1nn(C)c(C)c1S(=O)(=O)N(CC(=O)NCCc1ccccc1)c1ccc(C(C)C)cc1	.	0.6%	.	-4	-0.6	.
COc1cc(/C=C/C(=O)OCC(=O)Nc2ccccc2Cl)cc(OC)c1OC	-7	5.9%	-0.9	0	0.4	0
CC1CCCCC1NC(=S)Nc1ccc(SC(F)F)cc1 (stereo unspecified)	2	?	0.3	14	0.6	0
Cc1cccc(N2C(S)=C(C#N)C(=O)NC2c2cccs2)c1 (stereo unspecified)	-2	7.1%	-4.2	-6	0.2	3
COc1ccc([N+](=O)[O-])cc1NC(=O)CCC(=O)c1cccs1	0	-0.1%	-5.2	5	0.0	-13
COc1ccc(C(=O)C2CCCN(Cc3c(O)cccc3OC)C2)cc1OC (stereo unspecified)	-3	0.2%	2.9	-8	-0.6	-8
CCc1nc2ccc(C(=O)Nc3ccc(OC)c(OC)c3)cn2c1N(C)Cc1nccs1	-7	3.3%	3.7	.	-1.0	-13
CSCCC(NC(=O)c1ccccc1)C(=O)OCC(=O)c1ccc[nH]1 (stereo unspecified)	-1	0.2%	-5.1	25	0.5	2
CC(OC(=O)CC1CC2CCC1C2)C(=O)Nc1ccc(C(N)=O)cc1 (stereo unspecified)	.	3.0%	-2.2	2	0.7	0
O=C(NC(=S)Nc1cccc([N+](=O)[O-])c1)c1ccco1	-19	7.3%	-7.3	11	-0.2	3
Cc1ccc2c(CC(=O)Nc3ccc(N4CCN(C)CC4)cc3C)coc2c1	0	9.3%	-2.0	4	-0.2	-2
CC(C)CCN(C(=O)C1=COCCO1)c1c(N)n(Cc2ccccc2)c(=O)[nH]c1=O	-7	-1.0%	0.3	-4	0.6	5
CC(=O)c1ccc(NC(=O)CNCc2cccs2)cc1	.	-1.0%	-0.1	-2	1.0	2
Cc1cccc(N(C(=O)c2snc(C(N)=O)c2N)C(C(=O)NC2CCCC2)c2ccncc2)c1 (stereo unspecified)	5	4.6%	-0.1	-7	-0.2	-5
CCc1ccc(N2CN=c3s/c(=C\c4ccccc4)c(=O)n3C2)cc1	4	0.4%	-7.2	-8	-0.8	-12
CC(OC(=O)c1n[nH]c2ccccc12)C(=O)Nc1ccccc1[N+](=O)[O-] (stereo unspecified)	-13	2.4%	2.4	17	2.8	-4
CC(OC(=O)c1cccc(NS(C)(=O)=O)c1)C(=O)Nc1ccc2c(c1)OCO2 (stereo unspecified)	16	0.5%	0.5	9	0.2	-2
O=C(c1cccs1)N(c1ccc(Br)cc1)C1C=CS(=O)(=O)C1 (stereo unspecified)	-24	0.1%	-1.6	-7	1.9	-1
COc1cc(OC)c(N(C)C(=O)c2cn(C)c(=O)c3cc(OC)c(OC)cc23)cc1Cl	.	4.7%&0.7%	-4.3	-12&-3	0.9&-0.2	-1

Sorted by SMILES length (rising): some entries from above.
SMILES	CtBP-E1A inh	PINK1 modulator	D2 agonist	TRPML1 inh	TRPML1 ag	Six1-Eya2 inh
CC1CCCCC1NC(=S)Nc1ccc(SC(F)F)cc1 (stereo unspecified)	2	?	0.3	14	0.6	0
CSCCC(NC(=O)c1ccccc1)C(=O)OCC(=O)c1ccc[nH]1 (stereo unspecified)	-1	0.2%	-5.1	25	0.5	2
CCc1ccc(N2CN=c3s/c(=C\c4ccccc4)c(=O)n3C2)cc1	4	0.4%	-7.2	-8	-0.8	-12
COc1ccccc1N1CCN(C2CCCN(C(=O)c3cc(C4CC4)on3)C2)CC1 (stereo unspecified)	0	1.4%	3.4	-61*	1.3	0
CCc1nc2ccc(C(=O)Nc3ccc(OC)c(OC)c3)cn2c1N(C)Cc1nccs1	-7	3.3%	3.7	.	-1.0	-13

The list goes on.
SMILES	CtBP-E1A inh	PINK1 modulator	D2 agonist	TRPML1 inh	TRPML1 ag	Six1-Eya2 inh
COc1ccc(NC(=O)c2cc3c(CO)cnc(C)c3oc2=Nc2cc(OC)cc(OC)c2)cc1	0	-1.5%	2.2	3	0.6	2
O=C(Cc1ccccc1)N(Cc1cccnc1)c1nc2c(F)cc(F)cc2s1	.	0.0%	.	16	2.2	.
CCOC(=O)c1nnsc1-c1ccc(-c2snnc2C(=O)OCC)cc1	.	0.4%	2.8	-2	-0.8	4
CCc1nn(CC(=O)N2CCCCC2)c(=O)c2cc3occc3n12	.	0.1%	.	-7	-0.7	.
COc1ccc(NC(=O)C2CCCCN2S(=O)(=O)c2ccc(F)cc2)cc1 (stereo unspecified)	0	1.0%	-6.4	-24	0.9	1
Cc1ccc(NS(=O)(=O)c2ccc(-n3cccn3)cc2)c(Br)c1	-24	1.9%&-0.8%	-4.1	-4&1	1.6&0.7	-1
CC(C)n1cc(/C=C2/SC(=O)N(CC(=O)N3CCCC3)C2=O)c2ccccc21	0	-2.7%	-4.9	2	0.4	12
O=C1c2ccccc2N2C(=O)c3ccccc3C2N1Cc1ccco1 (stereo unspecified)	-15	-1.3%	-0.6	5	0.6	-17

Screening results deposited in PubChem BioAssay by National Center for Advancing Translational Sciences (NCATS).
